# NPYLR7 agonist – mosquito NPYLR7 agonism | 270,000 tested, 0.15% active | activation, % at 10 µM | HEK293T NPYLR7/Galpha15, GCaMP6s calcium fluorescence; in the data active = activation above about 40%;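 note: 0% = vehicle and 100% = reference agonist at the receptor; some compounds past the cut are filed as inactive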
# NPYLR7 agonist max-min – second read-out of NPYLR7 agonist, no call of its own (marks repeat the call); activation, %; measured here: Max-Min RFU normalised activation; some inactives read as strong as hits;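 span of the calcium signal over five minutes; 0% = vehicle and 100% = native peptide agonist; compound fluorescence can raise it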
# * = called active by the depositor; & = joins results of further samples. Some of the compounds tested. The share of hits here may be higher or lower than overall.
Compound | NPYLR7 agonist max-min | NPYLR7 agonist
Cc1occc1C(=O)NN=CC1C(=O)N(c2ccccc2Cl)C(=O)c2ccccc21 (stereo not drawn) | 7 | 6
CCCn1c(=O)n(CC(O)COCc2ccccc2Cl)c2ccccc21 (stereo not drawn) | -1 | -1
C=C(C)Cn1c(SCC(=O)N/N=C\c2ccccc2OCC(=O)O)nnc1-c1ccc(Br)cc1 | -12 | -8
CC(C)C(NC(=O)Nc1ccnc(C(=O)N(C)C)c1)c1ccccc1 (stereo not drawn) | -9 | -4
C=CCN1C[C@H](COCc2ccccc2)Oc2nc(C)ccc2C1=O | 9 | -1
COc1cccc(CC2CN(c3cnccn3)CCO2)c1 (stereo not drawn) | 1 | 6
CCC(C(=O)NC1CCN(c2ccccc2C(=O)NCc2cccnc2)CC1)c1ccccc1 (stereo not drawn) | 9 | -2
CCCCCCCCCCCC(=O)N1CCN(C(=O)c2cc(-c3ccc(OC)cc3)n(-c3ccccc3Cl)c2C)CC1 | 7 | -3
O=C(NN=CC1SC(=Nc2ccccc2)N=C1Cl)c1ccccc1 (stereo not drawn) | 1 | 6
COc1cc(OC)c2c(=O)c(OC)c(-c3ccc(OC)c(OC)c3)oc2c1 | -8 | -5
CN(CCO)C1=CC(=[N+]2CCOCC2)CC(C)(C)C1 | 41 | 6
COC(=O)C1=C(NC(=O)c2cccs2)CCS1 | 2 | 5
COc1ccc(-c2cnc3ncnn3c2N2CCCN(S(=O)(=O)c3sc(NC(C)=O)nc3C)CC2)cc1OC | 20 | 21
CNC(=O)C1CCN(C(=O)c2cccc(NC(=O)c3cccs3)c2)CC1 | 9 | 0
Cc1ccccc1-c1nc2scc(CCNS(C)(=O)=O)n2n1 | 0 | 2
CS(=O)(=O)c1ccc(C(O)CN2CCOc3ccccc32)cc1 (stereo not drawn) | -24 | -23
O=C(Cn1cccnc1=O)N1CCC(c2cc(Cc3ccccc3)[nH]n2)CC1 | 4 | 5
O=C(CCc1nc2c(F)cccc2[nH]1)N1CCCC1 | -27 | -25
COc1ccc(OC)c(NC(=O)Nc2ccc(Nc3cc(OC(C)C)nc(C)n3)cc2)c1 | 3 | 6
Cc1cc(C)cc(-n2nnc3c(=O)n(Cc4cccnc4)cnc32)c1 | 14 | 20
CCCC(NC(=O)c1ccc[n+]([O-])c1)c1ccccc1 (stereo not drawn) | 6 | 7
Cc1cc(NC(=O)C(=O)N2CCN(CCOc3ccc(Cl)cc3)CC2)no1 | -7 | 0
CCn1ncc2ccc(NC(=O)NCC(C)c3ccccc3)cc21 (stereo not drawn) | 2 | 3
CC(C(=O)ON=C(N)c1ccncc1)c1ccc([N+](=O)[O-])cc1 (stereo not drawn) | 6 | -2
CC1CN(c2ccccc2)CCN1Cc1ccc(CN(C)S(C)(=O)=O)o1 (stereo not drawn) | -1 | 2
Cc1cc(=O)nc2sc(N3CCN(C(=O)C(NS(=O)(=O)c4cccs4)C(C)C)CC3)nn12 (stereo not drawn) | 15 | 2
Cc1c(C(=O)N(C)Cc2cccc(Cl)c2)sc2nc3n(c(=O)c12)CCC3 | 4 | 3
CN(CC(=O)Nc1ccccc1)C(=O)c1csc2cncn12 | -1 | 1
CCc1cccc(NC(=O)N(CCOC)Cc2ccc(OS(=O)(=O)c3ccc(F)cc3)cc2)c1 | 15 | 0
COc1ccc(C(=O)N2CCC3(CC2)OCC(C(=O)NCc2cccnc2)N3C(=O)c2ccc(F)cc2)cc1 (stereo not drawn) | 8 | 6
CN(CCNC(=O)CC12CC3CC(CC(C3)C1)C2)S(C)(=O)=O | -6 | -5
CNC(=O)C1CCCN1C(=O)c1nnn(-c2cccc3ncccc23)c1C (stereo not drawn) | 5 | 5
COc1ccc(C2=NN(C(=O)CCC(=O)O)C(c3cccs3)C2)cc1 (stereo not drawn) | 21 | -1
Cc1ccc(NC(=O)NC2CCN(c3ccccc3C(=O)NCc3cccnc3)CC2)cc1 | 7 | 19
O=C(Nc1ccccc1)N1CCCC(OCc2ccc(OC(F)(F)F)cc2)C1 (stereo not drawn) | 0 | -3
CCCn1c(O)c(N=NC(=O)c2ccncc2)c2ccccc21 | -3 | 9
O=C(NCCSc1c[nH]c2ccccc12)Nc1c[nH]c2ccccc12 | 0 | 2
O=C(NCc1cccc(CN2CCCC2=O)c1)c1ccc(Cl)cc1Cl | 2 | 4
CN1CCCc2cc(CNC(=O)C3CC3c3cccnc3)ccc21 (stereo not drawn) | 7 | 8
O=C(O)c1ccc(NS(=O)(=O)c2ccccc2F)cc1 | -1 | -3
Cc1ccc(N2CCCS2(=O)=O)cc1NC(=O)C(=O)NCc1cccnc1 | 1 | 3
CC1(CC(=O)NNC(=O)C(CC(=O)O)NCc2ccco2)OCCO1 (stereo not drawn) | 18 | 0
COCCNC(=O)COc1coc(CN2CCN(Cc3ccccc3)CC2)cc1=O | 44 | -1
O=C(Cc1ccc(-c2ccccc2)cc1)N1CCCC(O)C1 (stereo not drawn) | 1 | 3
CN(Cc1ccccc1)C(=O)CCC1CCN(C(=O)CCOc2ccccc2)CC1 | 4 | 8

# Continued; the last six above are carried over.
Compound | NPYLR7 agonist max-min | NPYLR7 agonist
O=C(O)c1ccc(NS(=O)(=O)c2ccccc2F)cc1 | -1 | -3
Cc1ccc(N2CCCS2(=O)=O)cc1NC(=O)C(=O)NCc1cccnc1 | 1 | 3
CC1(CC(=O)NNC(=O)C(CC(=O)O)NCc2ccco2)OCCO1 (stereo not drawn) | 18 | 0
COCCNC(=O)COc1coc(CN2CCN(Cc3ccccc3)CC2)cc1=O | 44 | -1
O=C(Cc1ccc(-c2ccccc2)cc1)N1CCCC(O)C1 (stereo not drawn) | 1 | 3
CN(Cc1ccccc1)C(=O)CCC1CCN(C(=O)CCOc2ccccc2)CC1 | 4 | 8
CN(CCc1ccccc1)C1(C(=O)NC2CCCOC2)Cc2ccccc2C1 (stereo not drawn) | 3 | 6
FC(F)(F)c1ccc(CNCC2CC(c3ccc(Cl)c(Cl)c3)=NO2)cc1 (stereo not drawn) | -5 | 0
CCN(CC)C(=O)CCNC(=O)c1c[nH]c2ccc(OC)cc12 | -1 | 0
CC1(C)OCC(CNC(=O)c2ccc(SC(F)(F)F)cc2)O1 (stereo not drawn) | -11 | -7
NC(=S)Cc1nc2ccccc2[nH]1 | -1 | 1
CCC1(CC)CCN(C(=O)c2nnc(COC)o2)C1 | 6 | 9
CC(NC(=O)C1(c2cccc(Cl)c2)CC1)c1ccc(N2CCN(C)CC2)cc1 (stereo not drawn) | -2 | 0
COc1cc(CNCc2cc(Br)ccc2OC)cc(OC)c1 | -8 | -7
CCCCOc1ccccc1C(=O)N1CCC(N2CCCC2=O)CC1 | 4 | 5
CCOC(=O)c1ccc(N=c2oc3c(OC)cccc3cc2-c2nc3ccccc3[nH]2)cc1 | 6 | -1
CN(Cc1c(F)cccc1Cl)c1nc(C(F)(F)F)nc2ccccc12 | 1 | -1
CCOC(=O)CCC(=O)NCc1ccc2[nH]c3c(c2c1)CCCC3 | 8 | 11
CC(=O)Nc1cccc(-c2ccc(C(=O)N3CCCC3)cn2)c1 | -11 | -7
O=C(Cn1cnc2c(nnn2Cc2ccccc2F)c1=O)N1CCCc2ccccc21 | 10 | 8
CC(SCc1ccccc1)C(=O)N1CCNC1=O (stereo not drawn) | 4 | 8

# Whole records, looked up by structure. Order of values: NPYLR7 agonist max-min, NPYLR7 agonist
# FC(F)(F)c1ccc(CNCC2CC(c3ccc(Cl)c(Cl)c3)=NO2)cc1 (stereo not drawn) across the screens: -5, 0
# COc1cccc(CC2CN(c3cnccn3)CCO2)c1 (stereo not drawn) across the screens: 1, 6
# COc1ccc(-c2cnc3ncnn3c2N2CCCN(S(=O)(=O)c3sc(NC(C)=O)nc3C)CC2)cc1OC across the screens: 20, 21
# O=C(Nc1ccccc1)N1CCCC(OCc2ccc(OC(F)(F)F)cc2)C1 (stereo not drawn) across the screens: 0, -3
# O=C(NCc1cccc(CN2CCCC2=O)c1)c1ccc(Cl)cc1Cl across the screens: 2, 4

# Other entries
Compound | NPYLR7 agonist max-min | NPYLR7 agonist
CC(NC(N)=O)C(=O)Nc1ccc2c(c1)Cc1ccccc1-2 (stereo not drawn) | -1 | 1
CC(=O)NC1=NN(C(C)=O)C2(S1)C(=O)N(CCCOc1ccccc1)c1ccccc12 (stereo not drawn) | -1 | 2
CC(=O)Nc1cccc(NC(=O)CSc2nnc(C(C)C)c3cnn(-c4ccc(F)cc4)c23)c1 | -18 | -13
COc1ccc(C2SCC(=O)N(CC(=O)NCc3ccc(F)cc3)c3c2c(-c2ccccc2)nn3-c2cccc(C)c2)cc1OC (stereo not drawn) | 18 | 11
COc1ccc(CNC(=O)c2cccnc2N2CCN(C(=O)c3cc(F)cc(F)c3F)CC2)cc1 | -2 | 0
FC(F)(F)c1cccc(-c2ccc(-c3nn4c(-c5ccco5)nnc4s3)o2)c1 | -1 | 1
COc1ccc(-c2ccc(/C=C3/SC(=S)N(CC(=O)O)C3=O)o2)cc1Cl | -5 | -3
CC1Cc2ccccc2N1Cc1ccoc1C(=O)N1CC[C@@H](O)C1 (stereo partly drawn) | -24 | -22
Cc1ccc(-c2[nH]ncc2CNCC2(C)COC2)cc1C | -1 | 0
CCNC(=O)CSc1nnc(-c2ccc(Cl)cc2Cl)n1CC | 0 | 6
CC(c1ccc(Cl)cc1)N(C)C(=O)Nc1nc2c(s1)CCCC2 (stereo not drawn) | -3 | -4
COc1ccc(-c2noc(Cn3cnc4scc(-c5ccccc5)c4c3=O)n2)cc1OC | 1 | 3
O=C(Cn1[nH]c(=O)ccc1=O)N1CCC(c2ccccc2Cl)C1 (stereo not drawn) | 6 | 10
COc1cc(OC)c(OC)cc1C=NN1CCN(C2c3ccccc3-c3ccccc32)CC1 | 9 | 12
CC(=O)c1cccc(NC(=O)c2cccn(OCc3ccccc3)c2=O)c1 | 11 | 12
O=C(c1n[nH]c2ccccc12)N1CCC(c2[nH]ncc2-c2cccc(F)c2)CC1 | -1 | 0
Cc1cc(Nc2ccc3c(n2)C(=O)N(CC(=O)NCC(C)(C)C)C3)n(C)n1 | 1 | 6
CCCSc1nnc2c(n1)OC(c1cccc(C)n1)Nc1ccccc1-2 (stereo not drawn) | 4 | 10
CCN1CCN(C(=O)c2ccccc2N2CCC(NC(=O)Nc3ccc(C)cc3)CC2)CC1 | -1 | -4
O=C(CN1CCc2ccccc21)Nc1ccc(Cl)cn1 | 7 | 9
COc1cccc(CN2CCN(Cc3nc(-c4cccc(F)c4F)oc3C)CC2=O)c1 | -12 | -10
COCCOCCCNC(=O)C(C)c1c(Cl)cccc1Cl (stereo not drawn) | 4 | 1
Cc1ccc(NC(=O)CC(=O)NCc2nnc3n2CCC3)c(C)c1 | -3 | 0
Cc1nc(C(=O)N2c3ccccc3N(C)CCC2C)ccc1C#N (stereo not drawn) | 0 | 4
CC(=O)c1c(C)cc(C)c(CN2CCN(C)C3(CCN(C)CC3)C2)c1C | 5 | 19
Cc1ccc(C)c2[nH]c(=O)c(CCNC(=O)CCc3ccccc3)cc12 | 10 | 2
Cc1occc(=O)c1O | -5&-11 | -1&-7
Cc1cccc(NC(=O)N2CCn3nc(C(=O)NCCN(C)C)cc3C2)c1 | 2 | 4
C=C1NC(=Nc2ccc(I)cc2)N=C(Nc2ccc(OC)cc2)C1[N+](=O)[O-] (stereo not drawn) | -7 | -7
O=C1NCc2cccc(NS(=O)(=O)c3c(Cl)cccc3Cl)c21 | 10 | 13
Cc1occc1-c1nnc(SCC#N)n1Cc1ccccc1 | -3 | -1
S=C(NCc1cccs1)NC1CCSc2ccccc21 (stereo not drawn) | 10 | 3
COc1ccc([N+](=O)[O-])cc1NC(=O)c1c(-c2ccccc2Cl)noc1C | 4 | 3
Cn1nnc2c(SCC(=O)NCc3ccc4c(c3)OCO4)ncnc21 | 9 | 1
C=Cc1ccc(Cn2cc(C(=O)NCc3cccs3)sc2=O)cc1 | 7 | 13
CC(NC(=O)NC(=O)Cn1ncc(Cl)c(Cl)c1=O)C1CC2CCC1C2 (stereo not drawn) | 8 | 9
O=C(/C=C\c1ccccc1)Nc1c2c(nn1-c1ccc([N+](=O)[O-])cc1)CSC2 | 1 | -1
Cc1cc(OCC(=O)Nc2nc(CN3CCCCC3)cs2)ccc1Cl | 35 | 0
O=C(NC1CCCC1)c1ccc(OC2CCN(C(=O)CCc3ccco3)CC2)c(Cl)c1 | -1 | 3
COc1ccc2cc(C3CN(c4nccc5occc45)CCO3)ccc2c1 (stereo not drawn) | 4 | 6
COc1ccc(-n2ccc(C#N)c2C(=O)O)cc1 | 9 | 16
Cc1cc(C)c2sc(N(Cc3ccccn3)C(=O)c3cc(C)no3)nc2c1 | 4 | 1
Cc1ccccc1NC(=O)c1ccc(C)c(S(=O)(=O)Nc2ccccc2C)c1 | -3 | -1
Cc1nc(CCNC(=O)c2cc(C(C)C)on2)sc1C | -3 | 0
Cc1cccc(-c2nc(C)c(C(C)C)c(N3CCN(C(=O)Nc4cccc(Cl)c4)CC3)n2)c1 | 4 | 3
Cc1cc(Cl)cc(Cl)c1CNC(=O)c1cc2n(n1)CCN(C)C2 | 3 | 12
CC(c1nccs1)N(C)S(=O)(=O)NCc1ccccc1 (stereo not drawn) | -6 | -2
CSCc1cccc(C(=O)N2CCOC(C)C2)c1 (stereo not drawn) | -1 | 2
CC(C)c1nccn1CCCn1cnc(-c2ccccc2)c1-c1cnn(C)c1 | 6 | 9
COc1c(S(=O)(=O)Nc2cccc(C)n2)ccc(Cl)c1Cl | -4 | -2
C=CCCC(O)CN(CC=C)CC(=O)N1CCc2sccc2C1COc1cccc(C)c1 (stereo not drawn) | 7 | 6
CCOC(=O)N1CCN(c2ncc3c(n2)CC(c2cc(F)cc(F)c2)CC3=O)CC1 (stereo not drawn) | 4 | 6
CN(C)c1ccc(NC(=S)N=P(c2ccncc2)(N(C)C)N(C)C)cc1 | 5 | 7
Cn1nc2c(c1NC(=O)C1(c3ccc(Cl)cc3)CCCC1)CCC2 | 0 | 3
Cc1ccc(N=C(N(C)C)P(=O)(N(C)C)N(C)C)c(C)c1 | 10 | 14
COC(=O)CN1C(=O)[C@H](CC(C)C)NC12CCN(C(=O)/C=C/c1cc(F)ccc1F)CC2 | 13 | 0

# Screens from PubChem BioAssay.
